E coli growth = inhibitors of Escherichia coli growth; OD600, 23 h; hits give low values; OD600 absorbance (concentration not given with the values); actives 0.21% (n = 330,000);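 active means OD600 absorbance below the run mean of sample wells minus 3.6 SD, in any replicate, cut at about 0.56 in these data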;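 further: stock transfer was 300 nL into about 60 µL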
RanGTP-Impb inh = inhibitors of RanGTP-importin-beta interaction, primary screen, biochemical, FRET, CFP-Ran, YFP-importin-beta, homogeneous | cell-free CFP-Ran/YFP-importin-beta FRET ratio | inhibition, % (test concentration not listed) | actives 1.1% (n = 300,000);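 active means most replicates above 15%; inconclusive means exactly half above 15%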;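 further: 0% = DMSO wells and 100% = Ran loaded with GDP instead of GTP; wells of about 40 µL received 100 nL stock; the first replicate is given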
Vif TR-FRET = inhibitors of Vif binding to APOBEC3G peptide, primary screen, biochemical, TR-FRET, GST-Vif 1-94, biotin-A3G peptide, dose response retest (AID 1117319) | TR-FRET GST-Vif / biotin-A3G peptide binding; higher % means a stronger effect; test concentration not given here; strong numbers were not always called active | inhibition, %, or IC50 in µM where a hit was titrated | actives 0.57% (n = 260,000);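 active means above the screen mean plus three standard deviations and confirmed in dose response; inconclusive means results disagree or hit not tested in dose response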;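 further: Vif residues 1-94 fused to GST binding biotinylated APOBEC3G peptide 110-148; 0% = full assay without inhibitor and 100% = GST in place of GST-Vif; retest series ran down from 100 µM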
HNF4A DNA FP = change in binding of human HNF4 alpha to DNA. P41235. HNF4a-FITC DNA binding, fluorescence polarization, 1 h. activity change, % at 10 µM. actives 0.3% (n = 360,000). AID 1224865; in the data active means activity change above about 30%, passing the limit was not always enough;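 further: controls were the assay level and a saturating level of protein; the project sought stronger binding though the title names inhibitors; some compounds called inactive have numbers as strong as hits; positive values seem to mean higher polarization but the record does not say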
Target sequence (P41235 whole entry, looked up): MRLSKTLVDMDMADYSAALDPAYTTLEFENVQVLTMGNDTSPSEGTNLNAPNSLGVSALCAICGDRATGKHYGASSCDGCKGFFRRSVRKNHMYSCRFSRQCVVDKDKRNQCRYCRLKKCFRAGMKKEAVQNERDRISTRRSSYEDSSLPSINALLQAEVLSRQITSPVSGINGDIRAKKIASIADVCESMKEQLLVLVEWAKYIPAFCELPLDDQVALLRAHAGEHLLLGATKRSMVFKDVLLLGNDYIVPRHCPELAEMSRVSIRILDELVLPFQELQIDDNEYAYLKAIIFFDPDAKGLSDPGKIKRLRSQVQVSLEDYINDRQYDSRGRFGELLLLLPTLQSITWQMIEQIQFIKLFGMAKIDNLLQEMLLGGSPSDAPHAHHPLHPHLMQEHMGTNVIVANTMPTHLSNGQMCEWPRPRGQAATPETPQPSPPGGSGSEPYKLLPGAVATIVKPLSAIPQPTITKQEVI
FGF22 binding = shifts melting point of recombinant human FGF22 | recombinant FGF22 thermal shift, SYPRO orange fluorescence; percent of sucrose octasulfate shift, DMSO zero | calls only at 9.99 µM | actives 1.5% (n = 340,000) | AID 651658;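 active means melting point raised past a set limit in the mean and every replicate; inconclusive means no clear call; three in four hits are not shown here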
Target sequence (Q9HCT0 whole entry, looked up): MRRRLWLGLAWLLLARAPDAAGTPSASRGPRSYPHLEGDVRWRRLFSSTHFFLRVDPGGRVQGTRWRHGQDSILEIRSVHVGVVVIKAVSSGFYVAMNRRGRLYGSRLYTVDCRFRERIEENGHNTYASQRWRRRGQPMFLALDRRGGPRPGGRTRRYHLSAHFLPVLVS
AF4-AF9 inh = blocks AF4 peptide binding to human AF9 | AID 651704 | AlphaScreen, biotin-AF4 peptide binding to FLAG-AF9 | actives 0.47% (n = 350,000) | inhibition, % at 10 µM | P42568;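 active means every replicate reaching a set inhibition limit, whatever the replicate mean, cut at about 25% in these data; inconclusive means mean inhibition reaches that limit but some replicates miss it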;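 further: 0% = plate neutral control median and 100% = total signal loss; the record names both 10 and 1 µM as test concentration; the first replicate is given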
UCH37 inh = blocks the human deubiquitinase UCH37; Q9Y5K5; purified proteasome/UCH37, Ub-AMC cleavage fluorescence; inhibition, % (concentration not given with the values); actives 0.33% (n = 330,000);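 active means mean of two replicates above 20%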;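 further: 0% = compound-free wells with enzyme and 100% = wells lacking proteasome; stock transfer was 100 nL into about 20 µL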
Target sequence (Q9Y5K5 whole entry, looked up): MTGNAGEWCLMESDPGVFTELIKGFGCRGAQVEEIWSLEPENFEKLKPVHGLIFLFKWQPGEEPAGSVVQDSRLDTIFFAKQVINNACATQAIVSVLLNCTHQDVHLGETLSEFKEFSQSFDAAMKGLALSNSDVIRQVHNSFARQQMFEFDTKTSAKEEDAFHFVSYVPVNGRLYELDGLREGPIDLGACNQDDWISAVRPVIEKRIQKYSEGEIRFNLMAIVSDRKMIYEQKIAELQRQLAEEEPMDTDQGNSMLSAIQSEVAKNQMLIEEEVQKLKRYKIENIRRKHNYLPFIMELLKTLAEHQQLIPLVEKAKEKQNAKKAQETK
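Material: Human UCH37 enzyme supplied as purified proteasome complex | Schedule: 30 min preincubation with enzyme, 25 min cleavage at room temperature | Detection: AMC fluorescence 355/460 nm | Measure: % inhibition of Ub-AMC cleavage fluorescence | Controls: Wells without proteasome as full block, compound-free enzyme plus substrate as uninhibited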
The depositor's hits bear a star; i = inactive; ? = inconclusive; nt = no result given.

SMILES	E coli growth	RanGTP-Impb inh	Vif TR-FRET	HNF4A DNA FP	FGF22 binding	AF4-AF9 inh	UCH37 inh
CC(=O)c1c(O)cc(C)n(Nc2nc(C)cc(C)n2)c1=O	0.7	?	9%	-1.0	nt	nt	4.5
C[C@H](NC(N)=O)C(=O)OCC(=O)NCc1cccs1	0.68	-2.4	nt	0.2	i	0.4	2.6
COc1ccc(N(CC(=O)NCCc2ccccc2)C(=O)CCC(=O)Nc2ccccn2)cc1	0.67	-0.2	nt	-2.3	i	0.6	5.0
O=S(=O)(Nn1cnnc1)c1ccccc1	0.81	-1.0	17%	-0.2	nt	nt	0.7
Cc1ccc(NC(=O)COC(=O)c2ccc(S(=O)(=O)N3CCCCC3)cc2)cc1	0.68	nt	7%	0.0	i	-1.9	1.6
Cc1ccnc(NC(=O)CCC(=O)N(Cc2ccco2)C(C(=O)NC(C)C)c2ccc(F)cc2)c1 (stereo unspecified)	0.67	4.6	nt	2.3	i	-0.2	0.5
O=C(OCc1nc2ccccc2[n+]([O-])c1C(=O)c1ccccc1)c1cccs1	0.73	1.9	6%	-1.0	i	1.4	2.5
COc1ccc(NC(=O)CS(=O)CC(=O)NCC2OCCc3ccccc32)cc1 (stereo unspecified)	0.71	0.6	-1%	0.3	i	-6.2	1.3
C[C@@H](NC(=O)[C@@H]1CCCN1C(=O)[C@@H]1CCCN1C(=O)c1cccc(Cl)c1)c1ccccc1	nt	nt	nt	4.8	i	1.3	nt
Cc1ccc(C)c(NC2CCCCC2NS(=O)(=O)c2ccccc2)c1 (stereo unspecified)	0.68	0.5	nt	5.5	i	8.0	3.8
Cc1cnn(C(=S)NCc2ccco2)c1	0.69	0.5	?	-1.5	nt	nt	3.0
Cc1cccc(N2CCN(C(=O)CCS(=O)(=O)c3ccc4c(c3)NC(=O)C(C)S4)CC2)c1C (stereo unspecified)	0.67	1.9	nt	-5.4	i	0.5	4.4
O=Cc1cn(CC(=O)N2CCCCCC2)c2ccccc12	0.72	-2.0	-4%	4.8	i	1.4	1.3
COc1ccc(NC(=O)c2nn(C)c(C(=O)Nc3ccc(OC)cc3)c2[N+](=O)[O-])cc1	0.66	-1.4	nt	-4.0	i	2.5	2.2
CC(=O)N1c2ccc(S(=O)(=O)N3CCC(C(=O)NC(C)c4ccccc4)CC3)cc2CC1C (stereo unspecified)	0.73	0.0	nt	-5.1	i	-6.2	7.9
O=C(NCC1CCS(=O)(=O)C1)NCC1CCS(=O)(=O)C1 (stereo unspecified)	0.71	7.1	1%	-2.6	nt	nt	2.5
CCCS(=O)(=O)N1CCCC(C(=O)NC2CCCCC2)C1 (stereo unspecified)	0.71	?	-2%	-4.5	nt	nt	3.5
C#CC1(N2CCCCC2)CCCCC1	nt	nt	2%	-3.4	i	-2.7	nt
Cc1cccc(Nc2nnc(SCC(=O)Nc3ncc(C(F)(F)F)cc3Cl)s2)c1C	nt	4.7	10%	-2.6	nt	nt	1.3
COC(=O)c1sccc1-n1cc(C#N)c(=O)n(C)c1=O	0.68	-4.3	-15%	-2.9	i	3.7	1.2
CC(=O)c1sc(NC(=O)c2ccc(Cn3cc(Br)cn3)o2)nc1C	0.63	-4.0	10%	-1.4	nt	nt	1.3
CCOC(=O)c1oc2c(CN3CCN(C)CC3)c(O)c(CC)cc2c(=O)c1-c1nc2ccccc2s1	0.67	nt	nt	-4.8	i	-23	-1.2
COc1ccc(S(=O)(=O)N2CC(C)N(C(=O)N(C)C)C2C(C)C)cc1 (stereo unspecified)	0.64	0.7	nt	3.7	i	1.5	-1.8
CCCCCCn1cc(CN2CC(N3CCCCC3)CS2(=O)=O)nn1 (stereo unspecified)	nt	nt	nt	-0.5	i	-6.1	nt
Cn1cc(CN2CCN(CC(C)(C)C)C(CCO)C2)c2ccccc21 (stereo unspecified)	0.67	2.0	nt	2.1	i	-0.3	0.8
CC(C)=CCOc1ccc2ccc(=O)oc2c1	0.72	5.3	4%	-1.8	i	-3.1	-92
Cc1cc(C)cc(NC(=O)Cn2c(-c3ccccc3Cl)nc3ccccc32)c1	0.63	9.5	21%	0.7	nt	nt	-1.4
CC(C)(C)c1ccc(C(=O)N2CCC2(C)C(=O)NCC(F)(F)F)cc1 (stereo unspecified)	nt	nt	nt	1.1	i	-0.8	nt
O=C(CC1CCCC1)NCCS(=O)(=O)N1CCN(c2ccc(F)cc2)CC1	0.67	5.0	-4%	-1.2	nt	-1.0	-0.3
Cn1nnnc1SCC(=O)Nc1cccc(S(=O)(=O)N2CCCCC2)c1	0.71	nt	nt	2.3	i	0.0	1.7
COc1cc(C(c2c(NC(=O)c3ccco3)sc(C)c2C)N2CCOCC2)cc(OC)c1OC (stereo unspecified)	0.64	nt	-2%	2.3	i	9.8	-1.1
CC(C)CC(=O)NC(=S)Nc1ccc(N2CCN(C(=O)c3cccs3)CC2)cc1	0.68	2.3	-1%	2.0	i	4.6	4.9
CSc1ccccc1C(=O)Nc1cccc(C)c1	0.73	2.2	1%	4.3	nt	nt	0.1
Cc1ccc(C(NC(=O)C2CCN(CCOc3ccccc3)CC2)c2ccccn2)cc1 (stereo unspecified)	nt	nt	nt	1.3	i	3.5	nt
CCn1cc(C(=O)O)c(=O)c2cc(F)c(N3CCN(C(=S)NC(=O)c4cccc(F)c4)CC3)cc21	0.071*	-5.6	nt	-3.5	i	-3.1	-7.5
CCNC(=O)C1(C)CCN(C(=O)c2ccc(OC)cc2OC)C1 (stereo unspecified)	nt	nt	nt	-1.7	i	-8.9	nt
Cc1ccccc1S(=O)(=O)NC1OC(=O)C(Cl)=C1Cl (stereo unspecified)	nt	1.7	8%	-1.4	nt	nt	nt
CCN(c1ccccc1)S(=O)(=O)c1cccc(C(=O)Nc2ccc(C)cn2)c1	0.68	1.8	-2%	-1.4	i	1.0	0.7
Cc1cc(C(=O)N2CCC(C(N)=O)CC2)c(C)o1	0.65	nt	nt	0.7	i	1.0	0.6
COc1ccc(S(=O)(=O)N2CCC(C(=O)Nc3cccc(Cl)c3)CC2)cc1OC	0.69	2.4	0%	1.8	i	0.1	0.9

Single records (already shown). Values in the order: E coli growth, RanGTP-Impb inh, Vif TR-FRET, HNF4A DNA FP, FGF22 binding, AF4-AF9 inh, UCH37 inh
Record of CC(C)CC(=O)NC(=S)Nc1ccc(N2CCN(C(=O)c3cccs3)CC2)cc1 → 0.68, 2.3, -1%, 2.0, i, 4.6, 4.9
Record of COc1cc(C(c2c(NC(=O)c3ccco3)sc(C)c2C)N2CCOCC2)cc(OC)c1OC (stereo unspecified) → 0.64, nt, -2%, 2.3, i, 9.8, -1.1

Going on with the list:
SMILES	E coli growth	RanGTP-Impb inh	Vif TR-FRET	HNF4A DNA FP	FGF22 binding	AF4-AF9 inh	UCH37 inh
CCc1ccccc1S(=O)(=O)Cc1ccc(C(=O)NCc2cccs2)o1	0.7	-3.3	7%	0.6	i	-0.1	0.8
Cc1cnc(C(=O)N2CCCC(N3CCN(c4cccc(C(F)(F)F)c4)CC3)C2)cn1 (stereo unspecified)	0.69	5.7	-1%	-3.0	i	-4.4	4.2
COc1cccc(CN2C(=O)N(C(C)C)C(N(O)C(=O)NC(C)C)C2(C)C)c1OC (stereo unspecified)	0.72	-1.0	8%	0.2	nt	-0.7	0.3
COc1ccc(CNc2oc(-c3ccccc3)nc2C#N)cc1	0.69	-2.3	4%	0.3	i	-0.3	-28
COc1ccc(C(C(=O)NC2CCCC2)N(C(=O)c2ccco2)c2cc3c(cc2C(C)=O)OCO3)cc1 (stereo unspecified)	0.62	1.9	6%	2.4	i	-0.2	2.2
Cc1ccc(C(=O)NNC(=O)CCC(=O)Nc2cccc(Cl)c2C)cc1	0.69	-0.7	nt	0.1	nt	nt	1.4
COc1ccc(NC(=O)c2oc3ccccc3c2NC(=O)c2ccco2)c(OC)c1	0.73	1.0	?	-0.1	nt	nt	-296
CC(=O)NC(C)(C)C1CC=C(C)/C(=N\O)C1 (stereo unspecified)	nt	?	-1%	2.0	nt	nt	nt
Cc1cccc(N(C(=O)c2snc(C(N)=O)c2N)C(C(=O)NC2CCCC2)c2ccc(C)o2)c1 (stereo unspecified)	0.71	-0.5	-4%	0.9	i	0.9	-60
CC(C)c1ccc2[nH]c3c(c2c1)CCC/C3=N\NC(=O)c1ccncc1	nt	5.4	-4%	2.1	i	nt	nt

4 compounds from above, reduced to E coli growth, HNF4A DNA FP and UCH37 inh.
SMILES,E coli growth,HNF4A DNA FP,UCH37 inh
COc1ccc(CNc2oc(-c3ccccc3)nc2C#N)cc1,0.69,0.3,-28
CCc1ccccc1S(=O)(=O)Cc1ccc(C(=O)NCc2cccs2)o1,0.7,0.6,0.8
Cc1cccc(N(C(=O)c2snc(C(N)=O)c2N)C(C(=O)NC2CCCC2)c2ccc(C)o2)c1 (stereo unspecified),0.71,0.9,-60
CC(=O)NC(C)(C)C1CC=C(C)/C(=N\O)C1 (stereo unspecified),nt,2.0,nt

Next part:
SMILES	E coli growth	RanGTP-Impb inh	Vif TR-FRET	HNF4A DNA FP	FGF22 binding	AF4-AF9 inh	UCH37 inh
Cc1ccc(OCC(=O)N2CCN(S(=O)(=O)c3ccccc3[N+](=O)[O-])CC2)cc1	0.71	-7.2	1%	-1.9	nt	-5.4	3.2
CC(C)(C)c1ccc(C(=O)NNC(=S)NC(=O)c2cccnc2)cc1	0.68	0.1	nt	1.5	i	2.4	6.4
COc1ccc(C(=O)O)cc1S(=O)(=O)Nc1ccccc1-c1ccccc1	0.64	1.4	3%	-1.9	i	1.4	1.0
CC(=O)N[C@H]1[C@H]([C@H](O)[C@H](O)CO)O[C@](O)(C(=O)O)C[C@@H]1O	nt	nt	nt	4.0	i	-4.9	nt
O=C(NC1c2ccccc2-c2ccccc21)N1CCOCC1	0.67	-2.4	-6%	-0.3	i	-52	2.5
CCCOc1ccc(-c2nnn(CC(=O)N3CCCCC3)n2)cc1	0.69	6.6	nt	-3.1	i	-0.5	-1.0
COc1ccccc1N1C(=O)c2cccnc2C1=O	0.72	-1.0	nt	-1.9	i	3.1	3.5
O=C(CSCc1ccc(F)cc1)N1CCOCC1	0.67	8.1	-4%	1.5	nt	nt	1.1
CC(=O)NC1C(=O)N=C(SCC(=O)NC2CCCCC2)NC1=O (stereo unspecified)	0.66	3.5	4%	-1.3	i	-9.9	5.5
CCOC(=O)c1ccccc1NC(=O)Cn1cnc2c(oc3ccccc32)c1=O	0.75	1.1	-16%	-1.0	nt	nt	-3.4
CN(C(=O)CN1C(=O)CCSc2ccc(S(=O)(=O)N3CCCC3)cc21)c1ccccc1	0.67	1.7	nt	-4.6	i	6.1	2.1
COc1ccc(NC(=O)CN2CCC3(O)CCCCC3C2c2cc(OC)ccc2OC)cc1 (stereo unspecified)	0.69	3.8	-5%	-2.4	nt	nt	2.2
CC1CCCCN1S(=O)(=O)c1ccc(C(=O)N(CCCN(C)C)c2nc3ccc(Br)cc3s2)cc1 (stereo unspecified)	0.68	3.2	nt	1.4	i	19	4.1
Cc1ccc(Cn2ncc3c(NN)ncnc32)cc1	0.69	1.8	2%	-1.5	i	1.1	4.5
O=C(NCc1ccccn1)c1cccc(S(=O)(=O)Nc2ccccc2Cl)c1	0.68	nt	-8%	4.6	i	-0.2	-0.2
O=C(CCNc1ccccc1)c1cccc([N+](=O)[O-])c1	0.65	-0.6	11%	2.0	nt	nt	5.0
Cc1ccc(S(=O)(=O)N2CCC(=O)N(CCO)CC2)cc1	0.66	-2.2	29%	-4.3	i	-2.4	3.5
O=C(OCCN=C1NS(=O)(=O)c2ccccc21)c1cccnc1	nt	8.0	5%	-0.6	nt	nt	nt
CC(C)C(C(=O)Nc1ccccc1F)N1C(=O)c2ccccc2C1=O (stereo unspecified)	0.68	1.2	nt	-0.5	i	-0.3	3.1
CS(=O)(=O)c1ccc(-c2sc3ccccc3c2C(=O)NCCCN2CCOCC2)cc1	0.69	nt	0%	2.1	i	1.0	-0.6
CCn1cc(C(=O)N(C)c2cc(C)ccc2OC)c2cc(OC)c(OC)cc2c1=O	0.62	?	-5%	0.4	i	0.5	2.2

Not all compounds are listed (hit frequency here may not be typical).
